RecA intein inh: blocks M. tuberculosis RecA intein splicing; AID 2221; 290,000 tested, 0.75% active; inhibition, %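 (about 9 µM by stock and volumes)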; P9WHJ3; cell-free RecA intein splicing, fluorescence; in the data active means inhibition above about 30%;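 further: 0% = vehicle wells and 100% = reference inhibitor control wells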
Target sequence (P9WHJ3 whole entry, looked up): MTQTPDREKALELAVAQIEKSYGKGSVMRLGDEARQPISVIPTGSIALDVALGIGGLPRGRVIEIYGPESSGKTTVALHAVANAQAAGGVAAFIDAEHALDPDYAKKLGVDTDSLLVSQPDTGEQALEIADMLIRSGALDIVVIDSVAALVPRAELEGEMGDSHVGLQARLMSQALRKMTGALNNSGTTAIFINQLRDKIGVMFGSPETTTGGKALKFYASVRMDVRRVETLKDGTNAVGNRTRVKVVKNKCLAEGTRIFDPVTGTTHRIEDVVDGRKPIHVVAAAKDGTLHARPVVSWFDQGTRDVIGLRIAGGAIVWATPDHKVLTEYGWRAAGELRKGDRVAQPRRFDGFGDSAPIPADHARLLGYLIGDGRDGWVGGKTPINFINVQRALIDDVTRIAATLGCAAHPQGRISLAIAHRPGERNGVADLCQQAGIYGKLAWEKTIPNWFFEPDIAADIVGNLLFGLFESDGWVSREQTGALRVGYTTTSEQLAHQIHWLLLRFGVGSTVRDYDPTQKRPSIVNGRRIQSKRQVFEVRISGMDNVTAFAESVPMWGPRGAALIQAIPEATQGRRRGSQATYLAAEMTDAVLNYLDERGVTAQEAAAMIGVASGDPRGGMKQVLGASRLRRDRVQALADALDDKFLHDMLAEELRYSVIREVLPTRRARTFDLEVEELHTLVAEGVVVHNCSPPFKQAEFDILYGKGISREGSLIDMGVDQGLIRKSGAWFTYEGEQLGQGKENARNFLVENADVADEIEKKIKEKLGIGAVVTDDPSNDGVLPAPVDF
Mtb betalactam: beta-lactam sensitization of Mtb H37Rv; 330,000 tested, 0.27% active; inhibition, % at 25 µM; M. tuberculosis H37Rv growth with meropenem, percent inhibition; hits of this screen are not shown here;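 active means about 74% or more and at least 40 points above the plate without the antibiotic, then above 30% in a dose series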;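 further: growth measured after seven days incubation then overnight dye step; 0% = bacteria only wells and 100% = bacteria with antibiotic; twin plates without the antibiotic show which effects depend on it; some results filed as inactive read as strong as hits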
YopH PTP inh: blocks Yersinia enterocolitica YopH tyrosine phosphatase; fluorescence Ex485/Em525; inhibition, %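 (about 10 µM by stock and volumes)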; 140,000 tested, 0.16% active; AID 898;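 active means inhibition of 50% or more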;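 further: controls were vehicle for no effect and minimum signal wells for full effect; inactives centre near -20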
Mtb H37Rv: M. tuberculosis H37Rv growth inhibitors, H37Rv strain (AID 1626). M. tuberculosis H37Rv growth inhibition; higher % means a stronger effect. inhibition, % at 10 µM, or IC50 in µM where a hit was titrated. 220,000 tested, 0.95% active;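 active means confirmed in a dose series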;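 further: bacteria incubated seven days before Alamar blue readout; 0% = bacteria only wells and 100% = bacteria with antibiotic wells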
Arbovirus inh: antivirals against arbovirus infection | arbovirus infection cell-based antiviral screen | inhibition, % at 10 µM | 200,000 tested, 0.37% active | AID 1251;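 active means inhibition from about 30%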;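 further: bluetongue infection of BSR cells; cell survival read as ATP light after 72 h; 0% = infected wells without compound and 100% = uninfected wells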
Arbovirus inh repeat: second read-out of Arbovirus inh, no call of its own (marks repeat the call); inhibition, %; measured here: 10K subset replicate screen; many hits read low in the repeat;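 first of two repeat runs on a subset; 0% = infected and 100% = uninfected wells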
* = called active by the depositor; i = inactive; nt = no result given.

SMILES | RecA intein inh | Mtb betalactam | YopH PTP inh | Mtb H37Rv | Arbovirus inh | others
O=C1CCc2cc(S(=O)(=O)N3CCC(C(=O)Nc4nccs4)CC3)ccc2N1 | -1.1 | 2.7 | -21.0 | -6.7% | -7.6
Cc1ccccc1-c1noc(-c2ccc(O)cc2)n1 | 8.9 | 16.4 | -23.3 | 17.0% | -41.1
COc1ccccc1C(=O)NCCN1CCN(C(=O)c2ccccc2OC)CC1 | nt | -10.9 | 28.5 | -3.3% | 12.1
CC(C)/C=N/NC(=O)c1cc(Br)ccc1O | -11.3 | -2.8 | -18.8 | 56.3% | -5.1
CCOC(=O)c1ccccc1NC(=O)Cc1ccccc1OC | 8.5 | -4.3 | -32.1 | -3.0% | -8.4
CC(=O)N1C(=O)/C(=C2\SC(=S)N(NC(=O)c3ccc(O)cc3)C2=O)c2ccccc21 | 20.1 | -11.4 | nt | -9.8% | 24.4
Cc1ccc(/C=N/n2c(C3CCCCC3)n[nH]c2=S)s1 | 0.2 | 8.5 | -25.7 | 10.1% | 6.7
Cc1cnc(C(=O)OCC(=O)Nc2cc(-c3cc(C)c(C)cc3C)nn2-c2ccccc2)cn1 | -0.6 | -2.2 | nt | nt | nt
CC(=O)Nc1ccc(S(=O)(=O)NCCC(=O)N2CCc3ccccc32)cc1 | 0.1 | -5.3 | nt | nt | nt
N=c1c2c3c(sc2ncn1CCN1CCOCC1)CCCCC3 | -0.3 | -2.7 | -22.0 | -0.5% | 4.2
COC(=O)c1c(NC(=O)C2COc3ccccc3O2)sc2c1CCN(C(C)=O)C2 (stereo unspecified) | 1.8 | 61.9 | 7.1 | 7.7% | 0.5
C#CCN1CCN(c2cccc(C(F)(F)F)c2)CC1 | 0.0 | -4.2 | nt | 6.3% | -6.2
C=CCn1c(CCC)nc2ccccc21 | 0.2 | -0.1 | nt | 1.7% | 1.2
Cc1cccn2c(=O)c3cc(C(=O)NC4CCCCC4C)n(C)c3nc12 (stereo unspecified) | -12.6 | -1.1 | nt | nt | nt
COc1ccc(OC)c(NC(=O)CN(Cc2ccc(F)cc2)C2CCCCC2)c1 | 5.7 | 13.1 | nt | nt | nt
CCCc1ccc(S(=O)(=O)N2CCN(Cc3ccco3)CC2)cc1 | 4.2 | -15.1 | nt | nt | nt
CC(C)OC(=O)CSc1nnc(Cc2ccccc2)n1C | -0.2 | 0.2 | -43.4 | -3.4% | 12.4
COc1ccc(OCCn2c(C)c(/C=N/n3cnnc3)c3ccccc32)cc1 | -0.5 | -0.3 | -19.6 | 4.2% | 6.4
CCOc1ncccc1C(=O)OCC(=O)Nc1c(C)cc(C)cc1C | nt | 1.8 | -18.2 | -5.6% | 0.9
Cc1cccc(-n2c(O)c(C=NCCN3CCCCC3)c(=O)[nH]c2=O)c1 | 2.4 | -7.5 | nt | -4.2% | nt
CCCCn1c(NCc2ccc(N(C)C)cc2)nc2ccccc21 | -0.6 | -3.0 | nt | nt | nt
CC1CCCC(NC(=O)CN(C)S(=O)(=O)c2cccc3cccnc23)C1C (stereo unspecified) | 2.7 | 5.8 | -38.8 | -3.2% | 4.5 | Arbovirus inh repeat=-4.8
Cc1cc(NC(=O)CSc2nc3c(C)cccc3cc2C)no1 | -3.2 | -5.7 | nt | nt | nt
COc1ccc(S(=O)(=O)N2CCC(C(=O)NCCC(=O)NCc3cccc(OC)c3)CC2)cc1 | 0.6 | -4.5 | nt | nt | nt
CCOC(=O)c1ccc(NC(=O)NCc2ccccc2OC)cc1 | 4.7 | 56.0 | nt | 8.4% | 4.8

Ordered by molecular weight (descending): part of the list above.
SMILES | RecA intein inh | Mtb betalactam | YopH PTP inh | Mtb H37Rv | Arbovirus inh | others
COc1ccc(OC)c(NC(=O)CN(Cc2ccc(F)cc2)C2CCCCC2)c1 | 5.7 | 13.1 | nt | nt | nt
Cc1cccn2c(=O)c3cc(C(=O)NC4CCCCC4C)n(C)c3nc12 (stereo unspecified) | -12.6 | -1.1 | nt | nt | nt
N=c1c2c3c(sc2ncn1CCN1CCOCC1)CCCCC3 | -0.3 | -2.7 | -22.0 | -0.5% | 4.2
CCOC(=O)c1ccccc1NC(=O)Cc1ccccc1OC | 8.5 | -4.3 | -32.1 | -3.0% | -8.4
C#CCN1CCN(c2cccc(C(F)(F)F)c2)CC1 | 0.0 | -4.2 | nt | 6.3% | -6.2
C=CCn1c(CCC)nc2ccccc21 | 0.2 | -0.1 | nt | 1.7% | 1.2

Reprinted from the results shown for reference:
SMILES | RecA intein inh | Mtb betalactam | YopH PTP inh | Mtb H37Rv | Arbovirus inh | others
O=C1CCc2cc(S(=O)(=O)N3CCC(C(=O)Nc4nccs4)CC3)ccc2N1 | -1.1 | 2.7 | -21.0 | -6.7% | -7.6
Cc1ccccc1-c1noc(-c2ccc(O)cc2)n1 | 8.9 | 16.4 | -23.3 | 17.0% | -41.1

The list continues:
SMILES | RecA intein inh | Mtb betalactam | YopH PTP inh | Mtb H37Rv | Arbovirus inh | others
CCOc1cc(C(=O)N2CCN(c3ccccc3)CC2)cc(OCC)c1OCC | 0.1 | 95.4 | -9.1 | 14.1% | 6.3
CCn1c(=O)cc(SCC(=O)Nc2ccc(C)cn2)c2ccccc21 | -1.3 | -1.6 | nt | 2.0% | -11.9
CCOc1ccc(-c2nc(CSc3nnc(C)s3)cs2)cc1OC | 0.4 | 57.1 | -0.7 | 14.0% | -2.7
O=C(CCCNS(=O)(=O)c1ccc(F)cc1)Nc1ccc(F)cc1 | -2.1 | -3.5 | nt | nt | nt
Cc1cccc(/C(N)=N/OC(=O)CCCc2ccccc2)c1 | 9.1 | 1.1 | nt | nt | nt
Nc1nnc(-c2ccccc2[N+](=O)[O-])o1 | -1.9 | -0.8 | nt | 1.7% | 5.9
NC(=O)Nc1ccccc1C(=O)Nc1ccc2ccccc2c1 | -1.0 | -0.4 | nt | nt | nt
Cc1ccc(OCc2nnc(NC(=O)c3ccco3)s2)cc1 | -2.3 | -7.2 | 1.9 | -7.7% | 3.5
COc1ccc2c(c1)C(=O)c1ccccc1CO2 | 1.5 | -10.1 | -10.7 | nt | 2.4
CCC1COCCS(=O)(=O)N1Cc1cccc(Cl)c1 (stereo unspecified) | -2.6 | 3.0 | nt | nt | nt
Cc1ccc(S(=O)(=O)CC(=O)c2cc3cccc(C)c3oc2=O)cc1 | 2.2 | 6.6 | nt | nt | nt
COc1ccc(-c2csc(-n3ncc(C(=O)O)c3C(F)(F)F)n2)cc1 | 0.1 | 3.1 | nt | nt | nt
O=C(CSCc1c(Cl)cccc1Cl)Nc1ccccc1C(=O)N1CCOCC1 | 0.2 | -11.5 | -24.8 | -4.8% | 10.8
COc1ccccc1NC(=O)N1CCn2c(nc3ccccc32)C1 | -3.2 | nt | -0.5 | 0.1% | 0.7
Cc1ccc(NC(=O)c2cccc(C(=O)Nc3ccc(C)c(C)c3)n2)cc1C | -1.0 | -1.5 | nt | nt | nt
COc1cc2c(cc1OC)CN(C(=O)C1CCC(=O)N(CCCN3CCOCC3)C1)CC2 (stereo unspecified) | -0.7 | 7.9 | nt | nt | nt
Cc1ccc(NC(=S)NCc2ccc3c(c2)OCO3)cc1 | 5.3 | 3.7 | -2.9 | nt | 7.8
CCOc1ccc2nc3sc(C(=O)N4CCOCC4)c(N)c3cc2c1 | 2.5 | 0.8 | nt | 6.4% | -1.9
C=CCc1ccc(OCCOCCOc2cccc3cccnc23)c(OC)c1 | 2.5 | 10.3 | -17.6 | 11.5% | 10.3
COc1ccc(N2CCN(C(=O)Cc3ccc(Cl)cc3)CC2)cc1 | -2.2 | 1.2 | nt | nt | nt
CCN(CC)C(=O)CCCc1c[nH]c2ccccc12 | -0.8 | 4.0 | nt | 6.6% | 5.7
CCOC(=O)c1ccc(NC(=O)c2ccc3c(c2)C(=O)N(Cc2cccnc2)C3=O)cc1 | 3.2 | -7.2 | nt | nt | nt
Cn1c(=O)c2c(nc(OCc3ccc4c(c3)OCO4)n2Cc2ccccc2Cl)n(C)c1=O | 0.1 | 2.1 | -11.9 | 2.8% | -0.1
CCOC(=O)c1cnc2ccc(C)cc2c1N(C)Cc1ccccc1 | 12.5 | 8.6 | nt | nt | nt
Cc1ccc(N2CC(C(=O)NCc3cccs3)CC2=O)cc1 (stereo unspecified) | 2.7 | 2.7 | -48.0 | -10.8% | 2.6

Other records follow.
SMILES | RecA intein inh | Mtb betalactam | YopH PTP inh | Mtb H37Rv | Arbovirus inh | others
O=C(C1CCC(=O)N(C2CCCC2)C1)N1CCC(Oc2cccc(F)c2)CC1 (stereo unspecified) | 0.8 | -2.6 | nt | nt | nt
OCC(CO)(CO)N=Cc1cc(Br)ccc1O | -0.2 | -8.5 | -41.1 | -7.8% | -1.9
COc1ccc(-n2nc3cc(C)c(NC(=S)NC(=O)c4ccccc4C)cc3n2)cc1 | 0.8 | -8.3 | -26.8 | -0.6% | -16.5
CCn1c(SCC(=O)n2nc(C)cc2C)nnc1-c1ccc2c(c1)OCO2 | 1.2 | 1.0 | -25.1 | -2.8% | 3.4
Oc1oc(-c2ccccc2)nc1/C=N/c1ccccn1 | 1.6 | 3.9 | nt | -9.6% | -3.2
COCCCn1c(=N)c(C(N)=S)cc2c(=O)n3cccc(C)c3nc21 | i | -1.1 | nt | nt | nt
Cc1ccc(S(=O)(=O)N2CCN(c3ccc(S(=O)(=O)N4CCOCC4)cn3)CC2)cc1 | 7.8 | 21.1 | -13.0 | 2.9% | -4.2
COc1ncccc1C(=O)N1CCCC(C(=O)c2cccc(OC(C)C)c2)C1 (stereo unspecified) | 2.2 | -7.0 | nt | 6.5% | 6.8
COc1ccc(C(=O)Nc2ccc(NC(=O)c3ccccc3F)cn2)cc1 | 1.7 | 1.6 | nt | nt | nt
CC(C)n1cc(CN2CCCC(CO)(Cc3cccc(Cl)c3)C2)cn1 (stereo unspecified) | -11.3 | -3.4 | nt | 2.0% | -1.3
C=CCSc1nccc(-c2nn(-c3ccc(C)cc3)ccc2=O)n1 | -1.6 | nt | -0.7 | 0.2% | -4.8
CCOC(=O)CCCNC(=O)COC(=O)c1cc(C)cc(C)c1 | 0.8 | -5.5 | -6.2 | -0.1% | 0.5
CN(C)C(CNC(=O)c1cccc(C(F)(F)F)c1)c1ccco1 (stereo unspecified) | -0.2 | -4.2 | nt | nt | nt
CCCCNC1=C(Br)C(=O)CC(C)(C)C1 | 2.5 | 5.9 | -19.8 | -1.0% | -0.3
CC(C)(C)n1nnnc1C(c1ccncc1)N(Cc1ccccc1)Cc1ccco1 (stereo unspecified) | 7.9 | 0.9 | -18.4 | -5.7% | -4.2
Cc1ccc(S(N)(=O)=O)c(C)c1-n1cnnn1 | -2.7 | 2.6 | nt | 3.8% | 3.8
CCCC(=O)NCCc1nc2cc([N+](=O)[O-])ccc2n1C | -0.3 | 8.4 | -28.4 | 3.5% | 3.6
COc1ccccc1-n1cc(CN2CCCC(CO)(Cc3cccc(Cl)c3)C2)cn1 (stereo unspecified) | 2.6 | 0.8 | nt | 5.3% | -28.6
NC1=NC(=O)C(Cc2cc(Cl)ccc2Cl)S1 (stereo unspecified) | 2.7 | -7.0 | -10.7 | -5.3% | 4.3
CCOC(=O)c1c(NC(C)=O)no[n+]1[O-] | -1.8 | 4.2 | -17.2 | -4.7% | 7.0 | Arbovirus inh repeat=-0.1
NC(=O)C1CC(=O)N(c2ccc(OCc3c(Cl)cccc3Cl)cc2)C1 (stereo unspecified) | nt | -2.1 | nt | 0.9% | 0.3
COc1ccc(OCC(Cn2cnc3ccccc32)OC(C)=O)cc1 (stereo unspecified) | 0.3 | -4.7 | nt | 1.1% | 6.2
Cc1cc(C)nc(SCC(=O)Nc2ccnc3ccccc23)n1 | -1.5 | 8.1 | nt | -0.2% | 10.6
CCC(=O)N1CCN(c2nc(C)nc3sc(C)c(C)c23)CC1 | -0.6 | -3.9 | -38.5 | -3.3% | 1.4
CC1CN(S(=O)(=O)c2cccc(C(F)(F)F)c2)C(C)N1C(=O)N1CCOCC1 (stereo unspecified) | -0.8 | -3.5 | nt | nt | nt

(further entries)
SMILES | RecA intein inh | Mtb betalactam | YopH PTP inh | Mtb H37Rv | Arbovirus inh | others
O=C(Cc1ccc(NC2=NC3CS(=O)(=O)CC3S2)cc1)NCc1ccc(Cl)cc1 (stereo unspecified) | -3.1 | 2.1 | nt | nt | nt
C=CC[C@]12C=C(OC)C(=O)C(OC)=C1O[C@@H](c1ccc3c(c1)OCO3)[C@H]2C | -2.6 | -13.2 | nt | 4.4% | nt
NC(=O)NC(=O)C(OC(=O)CCNS(=O)(=O)c1ccccc1)c1ccccc1 (stereo unspecified) | 0.3 | -5.6 | nt | nt | nt
Cc1cc(C)nc(SCc2ccc(Cl)cc2)n1 | 2.1 | -6.2 | nt | nt | nt
O=C(N/N=C/c1ccco1)C(O)c1ccccc1 (stereo unspecified) | -1.8 | -6.4 | nt | -10.6% | nt
COC(=O)C1C(=O)c2c(C)noc2CC1(C)C (stereo unspecified) | 1.7 | -0.6 | nt | -1.1% | 1.2
O=C(c1cccc(Oc2c(Cl)cccc2[N+](=O)[O-])c1)N1CCOCC1 | 0.4 | -10.3 | nt | nt | nt

Screening data deposited in PubChem BioAssay by several laboratories.

A portion of the library, so the mix of outcomes need not match the whole.
